Cruzain inh noDet: blocks cruzain activity in detergent-free assay. P25779. purified cruzain, Z-FR-AMC fluorescence, no detergent. Potency, µM, inactives show max response, negative = inhibition, usual class: inhibitors. actives 2.3% (n = 200,000). AID 1476; active means well fitted curve in the direction sought with a large enough effect; inconclusive means small, poorly fitted or top-dose-only effect, or another doubt; inactive means no such curve, though single readings can be large; an effect the other way counts as inactive or inconclusive;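 further: plate controls were enzyme without inhibitor for no effect and buffer without enzyme for full effect; nearly all actives have a fitted effect of over 40% in size; top concentration of the series not given in the record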
Target sequence (P25779 123-467 limits assumed): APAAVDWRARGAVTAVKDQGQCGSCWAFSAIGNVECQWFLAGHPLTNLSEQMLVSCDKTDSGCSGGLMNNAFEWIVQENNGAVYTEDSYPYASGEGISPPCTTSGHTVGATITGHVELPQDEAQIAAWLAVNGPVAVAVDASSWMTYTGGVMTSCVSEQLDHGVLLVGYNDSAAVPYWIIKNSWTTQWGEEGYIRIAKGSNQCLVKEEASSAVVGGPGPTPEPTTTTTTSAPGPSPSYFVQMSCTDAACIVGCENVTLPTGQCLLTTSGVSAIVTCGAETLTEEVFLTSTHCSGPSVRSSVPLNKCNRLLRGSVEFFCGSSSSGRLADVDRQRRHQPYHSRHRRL
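Purified cruzain at 1.5 nM, pre-incubated 15 min with compound at room temperature in 100 mM sodium acetate pH 5.5, 5 mM DTT, 0.00005% Triton X-100. Reaction started with 2 uM Z-FR-AMC; AMC fluorescence increase over 60 s gives rate.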
SARS PLpro yeast: SARS-CoV PLP inhibition in yeast; Potency, µM (titrated, usually from 32.9 µM), for the others: at the highest dose activity, positive = growth rescue; actives 0.19% (n = 330,000); S. cerevisiae expressing SARS-CoV PLpro, growth rescue; control for the full effect not named in the record; AID 485353; further: 0% is about no effect; nearly all actives have a fitted effect of over 55% in size; growth read by luminescence after 48 h
Marburg entry inh: blocks Marburg virus binding to or entry into cells | actives 1.8% (n = 300,000) | Potency, µM (top dose mostly 37.8 µM), for inactives: top-dose activity change, negative = inhibition, actives largely listed as inhibitors | AID 540276 | Marburg virus pseudotyped entry inhibition, cell reporter; control for the full effect not named in the record; about a third of the inactives were read at about 46 µM; active = well fitted inhibition curve with a large enough effect; inconclusive = small, poorly fitted or top-dose-only effect, or effect the other way; inactive = flat fitted curve, though single readings scatter; tested in HEK293 cells; about a fifth of its hits are not listed in these tables; further: on the % scale 0 is the no-effect control and ±100 the full control effect; luciferase read-out
RE007 growth inh: less growth of the S. pombe RE007 Vpr strain; actives 0.21% (n = 360,000); Potency, µM (series often up to 92.2 µM), for inactives: at the top dose activity change, negative = less growth; S. pombe RE007 Vpr strain, BacTiter-Glo ATP luminescence, 24 h; control for the full effect not named in the record; AID 651644; active = well fitted falling curve with a large enough effect; inconclusive = small, poorly fitted or top-dose-only effect; inactive = no such curve, though single readings can be large or run the other way;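 further: on the % scale 0 is the no-effect control and ±100 the full control effect; nearly all actives have a fitted effect of over 50% in size; the assay follows cell death caused by Vpr and the record does not say whether a fall means rescue or toxicity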
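Fission yeast strain RE007, carrying one chromosomally integrated HIV-1 vpr copy, was seeded at OD 0.01 in PMG+AL medium with 23 nL pinned compound. After 24 h at 30 °C and 99% humidity, viability was read by BacTiter-Glo luminescence.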
LASV entry inh: Lassa virus entry inhibition. Lassa virus pseudotype entry inhibition, cell reporter; control for the full effect not named in the record. Potency, µM (series often up to 37.9 µM), inactives show at the top dose activity change, negative = inhibition, most hits filed as inhibitors. actives 1.2% (n = 300,000); active means well fitted inhibition curve with a large enough effect; inconclusive means small, poorly fitted or top-dose-only effect, or effect the other way; inactive means flat fitted curve, though single readings scatter; tested in HEK293 cells; further: on the % scale 0 is the no-effect control and ±100 the full control effect; nearly all actives have a fitted effect of over 50% in size; luciferase read-out
Cruzain Triton: blocks cruzain activity in presence of Triton detergent. Potency, µM, inactives show max response, negative = inhibition, hits mostly inhibitors. purified cruzain, Z-FR-AMC fluorescence, 0.01% Triton. actives 0.43% (n = 200,000). AID 1478. P25779; active means well fitted curve in the direction sought with a large enough effect; inconclusive means small, poorly fitted or top-dose-only effect, or another doubt; inactive means no such curve, though single readings can be large; an effect the other way counts as inactive or inconclusive;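 further: plate controls were neutral wells for no effect and buffer without enzyme for full effect; nearly all actives have a fitted effect of over 40% in size; top concentration of the series not given in the record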
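Enzyme 1.5 nM, Z-FR-AMC 2 uM, NaOAc 100 mM pH 5.5, DTT 5 mM, Triton X-100 0.01%; 15 min RT compound preincubation; kinetic ex360/em450, 60 s delta.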
NS1 function inh: inhibitors of influenza NS1 protein function. actives 0.4% (n = 270,000). AID 2326. Potency, µM (highest dose often 46.1 µM), without a hit: top-dose activity, positive = more growth. S. cerevisiae slowed by influenza A NS1, growth recovery by OD600; further: actives are rising curves; nearly all actives have a fitted effect of over 50% in size
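S. cerevisiae expressing influenza A NS1, grown in glucose, washed, then diluted 1:100 into pH 6.0 -URA galactose medium with 23 nl compound. Growth recovery read as OD600; NS1-free strain serves as control.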
StopGo reporter: lowers the luciferase signal of an FMDV 2A StopGo reporter. human cells with a luciferase reporter of 2A StopGo recoding; control for the full effect not named in the record. actives 1.2% (n = 410,000). AID 1159524. Potency, µM (top dose mostly 57.9 µM), without a hit: at the highest dose signal change, negative = less light; active = well fitted falling curve with a large enough effect; inconclusive = small, poorly fitted or top-dose-only effect; inactive = no such curve, though single readings can be large or run the other way; tested in HEK293T cells; further: on the % scale 0 is the no-effect control and ±100 the full control effect; nearly all actives have a fitted effect of over 45% in size; luciferase light after 4 h
Active calls of the source: *; ? = inconclusive; / = no result given; & = joins results of further samples; [ ] = another dose, or the depositor's remark. Unless noted, the call rests on the fitted dose curve; in most records, active means well fitted rising curve with a large enough effect; inconclusive means small, poorly fitted or top-dose-only effect; inactive means no such curve, though single readings can be large or run the other way. Potency means the concentration at half of the fitted maximal effect. The order is random; about 4.6% have a hit in one of these screens.

SMILES | Cruzain inh noDet | SARS PLpro yeast | Marburg entry inh | RE007 growth inh | LASV entry inh | Cruzain Triton | NS1 function inh | StopGo reporter
N#CCCN(C(=O)COC(=O)CCc1c[nH]c2ccccc12)c1ccc(F)cc1 | / | 2.3% | -4.8% | 1.5% | -8.2%[46.1 µM] | / | / | 7.5%
Cc1nn(CC(=O)NCC(C)c2ccccc2)c(=O)c2cccn12 (stereo not given) | / | -8.1% | / | -4.1% | / | / | -1.0% | -16.0%
Clc1ccccc1OCc1nnc2n1CCCCC2 | / | -5.2% | / | -7.5% | / | / | -1.5% | 19.6%
CCCCN(C(=O)C(C)Oc1ccc(Cl)cc1)c1c(N)n(CCCC)c(=O)[nH]c1=O (stereo not given) | / | 6.1% | -2.1% | -5.9% | -0.6% | / | / | -10.4%
NCCCSC1=NCCCN1 | -7.6% | 1.0% | 23.7% | 12.9% | 0.8% | 0.4% | -3.8% | 1.8%
CN1CCc2nc(NC(=O)COc3ccc(C#N)cc3)sc2C1 | / | 1.0% | -21.1%[46.1 µM] | -15.2% | ? | / | / | 5.5%
Cc1ccc(NC(=O)COC(=O)CNC(=O)c2ccco2)cc1 | / | -0.2% | 3.7%[46.1 µM] | 3.4% | 11.2%[46.1 µM] | / | / | -2.9%
NCCCCCc1nnc(SCc2ccccc2Cl)o1 | 0.3% | 0.3% | ? | 4.9% | ? | 4.2% | -11.2% | ?
COc1cc(C(=O)Nc2sc3c(c2C#N)CCCC3)c(Br)c(OC)c1OC | -11.2% | / | / | / | -28.3%[46.1 µM] | -2.9% | / | -21.6%
Nc1cc(Cl)cc(Cl)c1 | -14.8% | 5.1% | / | 1.6% | / | 2.3% | / | -22.8%
CSc1nc(N)c2ncn([C@H]3O[C@H](COP(=O)(O)OP(=O)(O)O)[C@@H](O)[C@@H]3O)c2n1 | -4.6% | / | 8.3% | / | / | -1.8% | / | -6.8%
CCNc1nc(CN2CCCCC2)nc2scc(-c3ccccc3)c12 | 1.9% | 22.7% | 4.47µM* | -0.7% | ? | -1.0% | -11.7% | ?
CCOc1ccc(S(=O)(=O)Nc2ccc(C(=O)NCC(c3ccco3)N(C)C)cc2)cc1 (stereo not given) | / | -7.8% | 3.0% | -4.3% | 17.3% | / | 16.7% | 10.8%
COCCN(C(=O)Nc1ccccc1)c1ccccc1 | 1.2% | 14.6% | -27.2% | -12.8% | ? | 8.6% | 7.6% | 2.0%
COc1ccc(CCC(=O)N2CC(C)OC(C)C2)cc1 (stereo not given) | 3.1% | 3.0% | 2.2% | -5.1% | -15.7%[14.3 µM] | 2.6% | ? | -7.9%
O=C1NC[C@H](Cc2ccccc2)N(CCc2cccc(F)c2)C1=O | / | 0.1% | / | 2.9% | / | / | 0.4% | -13.6%
COc1ccc(N2CCN(C(CNC(=O)c3cccs3)c3ccco3)CC2)cc1 (stereo not given) | / | -15.2% | ? | 42.1% | 6.6% | / | / | -1.1%
O=C(Nc1ccc(-n2cc(Cl)cn2)cc1)c1ccncc1 | / | -4.7% | / | -4.5% | / | / | -2.0% | 0.7%
O=C(Nc1ccccc1)Oc1ccc[nH]c1=O | / | -1.6% | / | -8.5% | / | / | -3.0% | 11.6%
Cc1ccc2nc(C(F)C(F)(F)F)[nH]c2c1 (stereo not given) | / | 0.0% | 4.9%[46.1 µM] | 2.7% | -0.6%[46.1 µM] | / | 1.0% | 2.5%
COC(=O)c1ccc(Cl)cc1N(Cc1c(F)cccc1Cl)S(C)(=O)=O | / | 0.2% | ? | -10.0% | ? | / | -4.1% | 6.6%
CCN(C(=O)CSc1nc2ccccc2n1CC)C1CCS(=O)(=O)C1 (stereo not given) | / | 0.9% | -17.6% | 3.1% | -5.2% | / | / | -3.0%
Cc1ccccc1OCC(O)Cn1c2ccccc2c2ccccc21 (stereo not given) | 3.6% | -45.6% | ? | ? | ? | -2.5% | -93.9% | /
COc1ccc(Cl)cc1NC(=O)CN(C)C(=O)Cn1cnc2c1c(=O)n(C)c(=O)n2C | / | -2.9% | 17.8% | 14.5% | -0.7% | / | / | -11.6%
Cc1ccc2c(c1)/C(=N/OS(=O)(=O)c1ccccc1)CCS2 | / | / | 5.2% | -2.9% | 14.3% | / | / | -3.3%

Fetched by structure from the entries so far, four records:
SMILES | Cruzain inh noDet | SARS PLpro yeast | Marburg entry inh | RE007 growth inh | LASV entry inh | Cruzain Triton | NS1 function inh | StopGo reporter
CCN(C(=O)CSc1nc2ccccc2n1CC)C1CCS(=O)(=O)C1 (stereo not given) | / | 0.9% | -17.6% | 3.1% | -5.2% | / | / | -3.0%
CCNc1nc(CN2CCCCC2)nc2scc(-c3ccccc3)c12 | 1.9% | 22.7% | 4.47µM* | -0.7% | ? | -1.0% | -11.7% | ?
COc1cc(C(=O)Nc2sc3c(c2C#N)CCCC3)c(Br)c(OC)c1OC | -11.2% | / | / | / | -28.3%[46.1 µM] | -2.9% | / | -21.6%
O=C(Nc1ccccc1)Oc1ccc[nH]c1=O | / | -1.6% | / | -8.5% | / | / | -3.0% | 11.6%

Additional records
SMILES | Cruzain inh noDet | SARS PLpro yeast | Marburg entry inh | RE007 growth inh | LASV entry inh | Cruzain Triton | NS1 function inh | StopGo reporter
C#CCOCCOCCOCCNc1nc(N2CCN(C(=O)[C@H](CCC(=O)O)n3cc(C(N)CC(C)C)nn3)CC2)nc(N2CCN(C(=O)[C@H](Cc3cc4ccccc4[nH]3)n3cc(C(N)[C@H](C)CC)nn3)CC2)n1 (stereo not given in full) | / | -1.0% | / | 4.5% | / | / | 6.8% | -18.7%
C=CCn1c(N)c(C(=O)Nc2ccc(C)cc2)sc1=S | ? | 18.1% | -2.8% | / | / | 3.4% | 2.6% | 74.0%[activator]
CSc1ccc(CNC(=O)CCn2c(=O)c3cccn3c3ccc(F)cc32)cc1 | 16.7% | / | / | / | 9.1%[46.1 µM] | -1.1% | / | 14.5%
COC(=O)c1c(C)oc(C)c1S(=O)(=O)N(C)C1CCCCC1 | / | -1.0% | 0.1%[46.1 µM] | -6.1% | 1.4%[46.1 µM] | / | -1.8% | 31.4%[activator]
CCCCCC(=O)NC(NC(=S)Nc1ccc(S(N)(=O)=O)cc1)C(Cl)(Cl)Cl (stereo not given) | 7.9% | 2.8% | -26.4%[46.1 µM] | 22.3% | -21.7% | -14.4% | 1.7% | 16.1%
COCCN(C(=O)COC(=O)C1CC1)c1c(N)n(Cc2ccccc2)c(=O)[nH]c1=O | / | 3.7% | ? | -6.9% | -12.4% | / | / | 9.6%
CCN(CC)S(=O)(=O)c1ccc(-c2nnc(SCC(=O)Nc3nnc(C)s3)n2CC)cc1 | -3.2% | 2.0% | 8.8% | -2.5% | 10.3% | -2.3% | -4.3% | -1.6%
Cc1ccc(OC(C)c2nnc(N)s2)cc1Cl (stereo not given) | 6.9% | -2.7% | -7.7% | 4.4% | ? | -1.4% | -11.2% | ?
O=C(COC(=O)c1ccc(O)cc1)Nc1ncc(Cl)cc1Cl | / | 1.5% | -14.8%[46.1 µM] | 2.5% | -14.5%[46.1 µM] | / | 8.3% | 20.2%
CCOC(=O)c1ccccc1NC(=O)C1=COCCO1 | / | -1.4% | -9.8% | -12.4% | 1.0% | / | / | -15.1%
O=c1c2ccccc2ncn1-c1ccc(Cl)c(Cl)c1 | ? | 24.4% | -9.0% | -5.1% | 1.8% | -0.7% | 12.1% | /
Cc1cc(C)cc(NC(=O)CCCn2nc(C)c3c(C)n(-c4ccccc4)nc3c2=O)c1 | 0.7% | -0.2% | / | 0.9% | ? | -1.2% | 2.0% | -20.8%&-4.8%
Cc1cc(C)c(S(=O)(=O)Nc2ccc3c4c(cccc24)CC3)c(C)c1 | 20µM* | -12.6% | ? | -12.6% | 1µM* | -2.8% | 3.2% | 5.7%
O=C1SCC(c2ccccc2)=NN1Cc1ccccc1 | -0.4% | -5.7% | -14.2% | -14.0% | -1.8% | -7.5% | -20.2% | -11.7%
CCc1nc(Nc2cc(OC)ccc2OC)c2oc3ccccc3c2n1 | / | -0.4% | ? | -7.5% | -10.0%[46.1 µM] | / | -2.8% | -24.9%
CCC(Sc1nc2n[nH]c(C)c2c(=N)n1-c1ccccc1Cl)C(=O)N(CC)CC (stereo not given) | -7.7% | / | / | / | ? | -2.1% | / | -24.4%
Clc1ccc(Cc2noc(CN3CCN(c4ccccc4)CC3)n2)c(Cl)c1 | 8.7% | -1.9% | 15.4% | -14.9% | -27.5% | -1.5% | -44.8% | /
COc1ccccc1NC(=O)Nc1cnccn1 | / | 0.0% | 19.2%[46.1 µM] | 6.6% | ? | / | / | -1.2%
Cn1c(CCc2nc3ccccc3[nH]2)nnc1SCC#N | / | -1.1% | -25.4%[46.1 µM] | -4.0% | 5.7% | / | 11.0% | -12.2%
CCN(C(=O)c1ccnn1C)c1ccccc1 | 3.2% | -15.2% | ? | 8.1% | 0.2% | -3.2% | -3.4% | -4.9%
CCOc1cc(N(CC)CC)ccc1/C=C(/C#N)c1nc2ccccc2[nH]1 | 31.6µM* | -5.4% | 13µM* | 9.1% | -15.5% | -2.5% | 3.2% | -24.4%
COc1ccc(OC)c(S(=O)(=O)N2CCC(C(=O)NCc3ccccn3)CC2)c1 | / | -1.2% | -12.2%[46.1 µM] | 12.0% | 0.6% | / | -1.4% | 31.7%[activator]
CC(=O)c1ccc(NC(=O)C2CCN(S(=O)(=O)c3ccc4[nH]c5c(c4c3)CCCCC5)CC2)cc1 | -15.9% | / | / | / | -3.2%[46.1 µM] | -1.7% | / | -7.7%
COc1ccc(S(=O)(=O)N2CCOCC2)cc1NC(=O)CSc1nnc2c(n1)[nH]c1ccccc12 | / | 1.7% | ? | -4.3% | ? | / | 7.7% | -17.2%
COc1cccc(CN2CC(C(=O)NCc3ccc(C)c(F)c3)CCC2=O)c1 (stereo not given) | / | 6.0% | 11.6% | -11.4% | 3.3% | / | -17.0% | 8.2%
